RN4220 kill = S. aureus RN4220 growth inhibition; OD600, 16 h; inhibition, % (no concentration beside the values); hit rate 0.33% among 330,000;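 active means z-score of -3 or lower and OD600 up to 0.18 on both plates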;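 further: plate controls were untreated cells for no effect and reference antibiotic for full effect; stock transfer was 100 nL into about 80 µL; one replicate is shown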
Bead autofluor = flagged as autofluorescent in microsphere protease counterscreen. compound autofluorescence counterscreen, microsphere flow cytometry; stronger effect = higher value. fluorescence intensity (no concentration beside the values). hit rate 3.1% among 360,000. AID 624483;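 active means at least 3 SD above the mean of all compounds, about 16000 in these data; inconclusive means too few beads counted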;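 further: 100 nL of 1 mM stock went into each well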
PrP 5UTR inh = suppresses PrP 5' UTR mRNA reporter expression. cell-based PrP 5' UTR mRNA reporter, plate reader. inhibition, % (no concentration beside the values). AID 488862. hit rate 0.35% among 340,000;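 active means every replicate at 50% or more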;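 further: 0 = median of the neutral control wells; tested in H4 reporter cells; numbers are from one replicate; inactives centre near -14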
BJeLR viability = kills HRASV12-expressing BJeLR cells | hit rate 0.17% among 300,000 | inhibition, % (concentration not given with the values) | AID 1554 | BJeLR (HRASV12) viability, CellTiter-Glo ATP luminescence, 48 h; reference of the scale not given here;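 active means replicate mean above 50%; inconclusive means above 50% but judged a plate artefact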;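 further: 50 nL library stock added to about 25 µL; numbers are from one replicate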
ugtP null kill = kills S. aureus RN4220 lacking UgtP | S. aureus RN4220 ugtP deletion, OD600 growth, 16 h; some inactives read as strong as hits | growth inhibition, % (test concentration not listed) | hit rate 0.54% among 330,000;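 active means z-score under -3 and OD600 up to 0.15 on both plates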;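 further: plate controls were untreated wells for no effect and antibiotic for full effect; wells of about 80 µL received 100 nL stock; the first replicate is given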
Mtb hypoxia rep = Mtb hypoxia fluorescent reporter inhibition; M. tuberculosis hypoxia-regulated fluorescent reporter, fluorescence; fluorescence inhibition, % (no concentration beside the values); hit rate 0.1% among 300,000; AID 1159583;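 active means 35 to 45% if threefold the growth effect, above 45% if 1.5-fold the growth effect; inactive means the rest, general growth blockers included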;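 further: wells of about 50 µL received 100 nL stock; 0% = vehicle wells and 100% = reference inhibitor wells; whole bacteria with a GFP reporter of the hypoxia response; strong numbers were not always called active; many hits fall short of the cut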
Mtb hypoxia rep growth = recorded beside Mtb hypoxia rep, whose call it bears; growth inhibition, %; measured here: M. tuberculosis growth (absorbance);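 0% = vehicle and 100% = reference antibiotic; read after six days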
Numbers without * were called inactive; ? = inconclusive; nt = no result given. Compounds as they come (roughly 4% active in at least one column).

| # | Compound | RN4220 kill | Bead autofluor | PrP 5UTR inh | BJeLR viability | ugtP null kill | Mtb hypoxia rep | Mtb hypoxia rep growth |
| --- | --- | --- | --- | --- | --- | --- | --- | --- |
| 1 | COc1ccc(/C=C/C(=O)NC2CC3CCC2C3)cc1 (stereo not given) | 2.5 | 3649 | -28 | 1 | 7 | -4 | -1 |
| 2 | Cc1ccc(CSC2=NCCN2C(=O)c2ccc([N+](=O)[O-])cc2)cc1 | 3.1 | 4365 | 1 | -5 | 2 | -5 | 12 |
| 3 | S=C(NCc1ccc2c(c1)OCO2)Nc1ccc(-c2nc3ccccc3[nH]2)cc1 | -1.0 | 1946 | -17 | 8 | -24 | -3 | -6 |
| 4 | O=C(NC1CC1)c1scc2c1OCCO2 | -0.4 | 4537 | -5 | 7 | 3 | nt | nt |
| 5 | CCOc1ccccc1CN1CCNC(=O)C1CC(=O)NCCCn1cccn1 (stereo not given) | 2.5 | 5707 | 1 | 1 | 2 | 5 | 18 |
| 6 | CN(C(=O)CN1CCN(c2ccc([N+](=O)[O-])cn2)CC1)c1ccccc1 | nt | 2718 | -17 | 2 | nt | nt | nt |
| 7 | NNC(=O)C(=O)/C=C1\NC2(CCCC2)Cc2ccccc21 | 2.3 | nt | nt | -2 | 7 | 11 | -7 |
| 8 | O=c1[nH]c2ccccc2nc1-c1ccc(Cl)cc1 | 1.9 | nt | -46 | 5 | 6 | 4 | 5 |
| 9 | Cc1cccc(Oc2ccc(N)cc2)c1 | 6.2 | 4431 | -10 | 2 | -1 | 11 | 10 |
| 10 | O=C(Nc1ccccc1Cl)c1cc(S(=O)(=O)N2CCOCC2)cs1 | 1.9 | 10627 | -23 | 8 | 6 | -4 | 8 |
| 11 | CCOC(=O)C1=C(COC(=O)CCCOc2ccccc2)NC(=O)NC1C (stereo not given) | 7.0 | 5676 | -32 | nt | -4 | 4 | 4 |
| 12 | Cn1c(NCC2CCCO2)nc2c1c(=O)n(Cc1ccccc1)c(=O)n2C (stereo not given) | 0.5 | 9391 | 1 | -8 | -1 | 0 | 0 |
| 13 | O=C(CN1CCN(c2cccc(Cl)c2)CC1)Nc1ccc(S(=O)(=O)N2CCOCC2)cc1 | 6.1 | 6351 | -14 | 9 | -2 | 5 | 3 |
| 14 | Cc1c(NC(=O)c2cc(-c3cccs3)nc3ccccc23)c(=O)n(-c2ccccc2)n1C | 4.1 | 2225 | -8 | 3 | 3 | 12 | 7 |
| 15 | COCCN(C(=O)CSc1nnc(-c2ccccc2OC)o1)c1c(N)n(CC(C)C)c(=O)[nH]c1=O | 1.1 | ? | -5 | -10 | 4 | 8 | 11 |
| 16 | COc1ccc(CC2(CO)CCN(S(=O)(=O)c3c(C)nn(C)c3Cl)CC2)cc1 | 1.1 | 4674 | -5 | 14 | 5 | 3 | 4 |
| 17 | COC(=O)C1=C(c2ccc(F)cc2OCc2ccccc2)CC2CCC1N2C(=O)NCc1ccccc1 (stereo not given) | -6.4 | nt | nt | nt | 7 | 12 | 8 |
| 18 | O=C(Cc1n[nH]c(=O)[nH]c1=O)NN=CCCc1ccccc1 | 0.9 | nt | nt | nt | -3 | 11 | 5 |
| 19 | CCC1CCCCN1C(=O)Cn1c(C(=O)OC)cc2sc(Cl)cc21 (stereo not given) | 2.4 | 9423 | -14 | -4 | 1 | 9 | 3 |
| 20 | Cc1ccc(CNC(=O)c2ccc(N3CCC4(CC3)CC(c3cccc(Br)c3)=NO4)c(NC(=O)c3ccc(Br)cc3)c2)cc1 | 2.0 | 3883 | -12 | nt | -6 | 3 | 5 |
| 21 | O=C(CCCn1nnc2ccccc2c1=O)N[C@@H](Cc1ccccc1)C(=O)O | 3.6 | 4065 | nt | -2 | -2 | 8 | 4 |
| 22 | CCc1n[nH]c(=S)n1/N=C/c1cccc2ccccc12 | nt | 3434 | -43 | 3 | nt | nt | nt |
| 23 | CCC(Sc1nncn1C)C(=O)Nc1ccccc1OC (stereo not given) | -0.8 | 9370 | -20 | -12 | 1 | 6 | 12 |
| 24 | O=C(Nc1cccc(NC(=O)c2ccco2)c1)c1ccc2c(c1)OCO2 | 6.1 | 10309 | -18 | 0 | 2 | 4 | 8 |
| 25 | Nc1ccc(S(=O)(=O)NN=CC=Cc2ccccc2[N+](=O)[O-])cc1 | 3.3 | 3716 | -152 | nt | 6 | 3 | 3 |
| 26 | O=C(O)CCC(=O)c1ccc2c(c1)OCCCO2 | -0.9 | 5192 | -21 | 1 | -1 | 1 | 5 |
| 27 | O=C(Nc1ccc(F)cc1F)c1ccc(S(=O)(=O)NCc2ccco2)cc1 | 3.3 | 4166 | -15 | nt | 8 | 10 | 10 |
| 28 | COc1cccc(OC)c1C(=O)Nc1nc(N)n(-c2ccccc2)n1 | 3.1 | 17413* | 1 | -1 | 10 | 6 | 3 |
| 29 | O=C(O)CCSc1ccccn1 | 1.1 | 3425 | -19 | -31 | 6 | 3 | -1 |
| 30 | CN(Cc1ccccc1F)C(=O)c1ccc(NC(=O)CC2SC(N3CCCCC3)=NC2=O)cc1 (stereo not given) | 3.3 | 6915 | 4 | nt | 0 | -1 | -6 |
| 31 | O=C(NCc1ccco1)c1ccc(Cn2c(=O)c3sccc3n(Cc3ccc(F)cc3)c2=O)cc1 | -5.4 | 5204 | -29 | 1 | 7 | nt | nt |
| 32 | Cc1ccc(C(=O)OCC(=O)Nc2ccc3[nH]c(=O)[nH]c3c2)cc1[N+](=O)[O-] | 6.4 | 4111 | -13 | -3 | 9 | -10 | 8 |
| 33 | COc1ccc(CNC(=O)CCN2C(=O)c3ccccc3C2=O)cc1OC | 0.8 | 4556 | -13 | -18 | -3 | 2 | -9 |
| 34 | NC(=S)Nc1ccccc1Br | 5.8 | 3787 | -23 | 6 | 10 | -3 | -1 |
| 35 | COc1ccccc1Nc1ncnc2ccc(C)cc12 | -3.7 | 2933 | -20 | -21 | -14 | 18 | 8 |
| 36 | O=C(CSc1nnc(-c2ccco2)o1)N1CCCCC1 | -2.5 | 4822 | -83 | -8 | -7 | 8 | -7 |
| 37 | O=C(/C=C/c1ccccc1)OCC(=O)c1c[nH]c2ccccc12 | 3.9 | 3972 | -6 | nt | -2 | -5 | 13 |
| 38 | Cc1cc(NCc2ccco2)n2c(nc3ccccc32)c1C#N | -6.0 | 2367 | -9 | 3 | 5 | 9 | 3 |
| 39 | Cc1cc(NC(=O)COc2ccc(Cl)cc2Cl)n(CCC#N)n1 | 4.5 | 10680 | -65 | 0 | -6 | 14 | 6 |
| 40 | COc1ccc2[nH]c3c(c2c1)CCN1C(=O)C(CC(=O)NCc2ccc(OC)c(OC)c2)C[C@H](C(=O)N2CCOCC2)[C@@]31C (stereo not given in full) | 1.9 | 4220 | -14 | nt | 5 | -13 | -14 |
| 41 | COc1ccc(CN(C)S(=O)(=O)c2nnc(NC(=O)c3cccc(OC)c3)s2)cc1 | 26 | ? | -10 | 5 | 33 | 4 | 6 |
| 42 | Cc1ccc(C(C)C)cc1OCC(=O)N/N=C/c1ccc2c(c1)OCCO2 | nt | 2658 | -19 | -9 | nt | nt | nt |
| 43 | CC1(C)Nc2ccccc2C(=O)N1NC(=O)c1ccccc1 | 3.3 | 4088 | -18 | 3 | 3 | 3 | 5 |
| 44 | CCOCC(=O)OCC(=O)NC12CC3CC(CC(C3)C1)C2 | -0.1 | 4327 | 2 | 1 | 3 | -5 | 10 |
| 45 | COc1ccc(NC(=O)CCCN2C(=O)CN(C)C2=O)cc1Cl | 2.2 | 8525 | -14 | nt | 4 | 8 | 4 |
| 46 | COc1ccc(OC)c(-c2cnc(OC(C)(C)C)nc2OC(C)(C)C)c1 | -20 | 1996 | -40 | 16 | 74 | 0 | 9 |
| 47 | CCn1c(COc2ccc(C)cc2)nnc1SCc1ccc(C#N)cc1 | 10 | 7670 | nt | -2 | 1 | 1 | 2 |
| 48 | Cc1ccc(C(=O)CSc2nnc(-c3c[nH]c4ccccc34)o2)cc1 | -1.4 | 19814* | -22 | -7 | -16 | -1 | -1 |
| 49 | Cc1c(C)n(C)c2ccc(C(=O)NCCCN3CCCC3)cc12 | 1.6 | 6788 | 4 | 8 | 4 | 6 | 0 |
| 50 | O=C(Oc1ccccc1C(=O)Nc1ccccc1)c1ccc(Br)c([N+](=O)[O-])c1 | 3.5 | 2466 | -23 | -4 | 7 | -4 | 3 |

The list continues:
| # | Compound | RN4220 kill | Bead autofluor | PrP 5UTR inh | BJeLR viability | ugtP null kill | Mtb hypoxia rep | Mtb hypoxia rep growth |
| --- | --- | --- | --- | --- | --- | --- | --- | --- |
| 51 | CCOC(=O)C1Nc2c(F)cc(C)cc2C2c3ccccc3CC12 (stereo not given) | -5.6 | 4301 | -10 | -1 | 6 | 7 | 4 |
| 52 | Cn1c(C(=O)N2CCCC(C(=O)O)C2)cc2sccc21 (stereo not given) | 3.7 | 3104 | -17 | 6 | -1 | 13 | 6 |
| 53 | Cn1cc(Br)c(C(=O)NC2CCCCCC2)n1 | 4.0 | 5545 | -18 | 0 | 6 | 10 | 8 |
| 54 | CC1CCN(CC(O)COC2CC(C)CC(C)(C)C2)CC1 (stereo not given) | -0.1 | 4004 | nt | 1 | 2 | -7 | 3 |
| 55 | CCc1nc2sc(C#N)c(N)c2c2c1CCCC2 | -1.3 | 10076 | -1 | -6 | -5 | -1 | 4 |
| 56 | Cc1oc(-c2ccccc2Cl)nc1CN1CCCCC1CO (stereo not given) | 5.3 | 5149 | 15 | 4 | 13 | -4 | 5 |
| 57 | Cc1c(NC(=O)CSc2nnc(C(C)Oc3ccc(Cl)cc3)n2-c2ccccc2)c(=O)n(-c2ccccc2)n1C (stereo not given) | 1.6 | 18398* | -22 | -3 | 18 | 1 | 5 |
| 58 | NC(=O)c1cnn2c(C(F)(F)F)cc(-c3ccc(F)cc3)nc12 | 4.3 | 22634* | -3 | 0 | -8 | 2 | 7 |
| 59 | COC(=O)[C@]1(C)N[C@H](c2ccc(-c3ccccc3)cc2)[C@@H]2C(=O)N(C)C(=O)[C@@H]21 | nt | 3555 | -10 | 15 | nt | nt | nt |
| 60 | CCOC(=O)Cc1csc(NC(=O)COc2ccc(C)cc2)n1 | 3.6 | 4062 | -23 | 11 | 5 | 11 | 0 |
| 61 | COc1ccc(CC(=O)NCc2nnc(SCC(=O)N3CCN(c4ccccc4)CC3)n2C)cc1 | 7.7 | 4395 | -13 | nt | -4 | 16 | 5 |
| 62 | CCCCCCCCSc1n[nH]c(N)n1 | -4.5 | 2055 | 5 | -4 | -1 | 14 | 10 |
| 63 | COCCN=c1scc(-c2cc(OC)c(OC)c(OC)c2)n1N=Cc1c(C)[nH]c2ccccc12 | -1.5 | nt | nt | nt | -25 | 0 | 0 |
| 64 | O=C(O)C(F)=C1c2ccccc2-c2ccccc21 | 4.8 | nt | nt | 0 | -13 | 10 | 13 |
| 65 | COc1ccc(OC)c(S(=O)(=O)NCCCn2ccnc2)c1 | 7.6 | 2866 | -3 | 1 | 9 | -2 | 1 |
| 66 | CCc1cccc(NC(=S)N(CCN(C)C)C2CCN(C(C)C)CC2)c1 | 0.5 | 3574 | -23 | -2 | 2 | -10 | 8 |
| 67 | C=C(C)c1cccc(C(C)(C)NC(=O)NC2CN3CCC2CC3)c1 (stereo not given) | 0.2 | 3479 | -20 | -17 | 3 | 7 | 4 |
| 68 | Clc1ccc(N2CCN(/N=C/c3ccncc3)CC2)cc1 | nt | 3501 | -29 | -1 | nt | nt | nt |
| 69 | O=S(=O)(Nc1ccc(-n2cnnn2)cc1)c1ccc(Cl)cc1 | 7.0 | 3786 | -18 | nt | 6 | 5 | 9 |
| 70 | CN1C(=O)C(=O)/C(=C(/O)c2ccc(Br)cc2)C1c1ccccc1F (stereo not given) | 5.3 | 4045 | -18 | -12 | 5 | -11 | -9 |
| 71 | O=C(CSc1nc(=O)n(CCN2CCOCC2)c2c1CCCC2)Nc1ccc(F)cc1F | 4.7 | ? | -10 | 15 | 11 | -8 | -13 |
| 72 | Cc1ccccc1-n1c(SC(C)C(=O)NCC2CCCO2)nnc1-c1ccncc1 (stereo not given) | 2.0 | 4857 | 5 | nt | 1 | -17 | -3 |
| 73 | COc1cc(/C=N/Nc2ccc(S(N)(=O)=O)cc2)cc(OC)c1OC | nt | 4277 | -58 | 4 | nt | nt | nt |
| 74 | COC(=O)c1sccc1NC(=O)c1ccccc1[N+](=O)[O-] | -3.7 | 2437 | -7 | -2 | 6 | 1 | 10 |
| 75 | CC(C(=O)N1CCc2ccccc21)N1CCN(c2ccccn2)CC1 (stereo not given) | 2.5 | 9547 | -7 | -16 | 3 | 8 | 0 |
